High-throughput results: PubChem, several laboratories
MT1-MMP reporter: inhibitors of MT1-MMP promoter transcription, cell-based, luciferase reporter, luminescence (AID 618). MT1-MMP promoter luciferase reporter cells, luminescence. calls from a first round at 10 µM; hits with a dose series show EC50 in µM. hit rate 0.62% among 87,000;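 active means over half of the reporter light lost at 10 µM or EC50 under 50 µM; inactive means the rest and hits that failed the dose series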;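 further: actives suppress MT1-MMP promoter-driven transcription so potencies describe inhibitors; HT1080 fibrosarcoma cells; overnight exposure; toxic or luciferase-blocking compounds were not removed from the actives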
Hsc70: Hsc70 inhibitors, probe displacement, primary screen, biochemical, fluorescence polarization (AID 568). one-dose displacement, % at 20 µM; IC50 in µM for titrated hits. Heat shock cognate 71 kDa protein (Homo sapiens). Hsc70 fluorescence polarization, probe displacement; higher % means a stronger effect; strong numbers were not always called active. 83,000 tested, under 10 active;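 active means displacement above 50% without optical interference and an IC50 on retest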;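 further: ATPase domain with a fluorescein-tagged ATP probe; 0% = vehicle and 100% = excess ADP; read after one hour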
WNV NS2B-NS3 inh: inhibitors of WNV NS2B-NS3 protease, primary screen, biochemical, fluorogenic substrate. Genome polyprotein (West Nile virus), P06935. fluorogenic substrate Ex360/Em465; active compounds read low. z-score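 (tested at a level between 10 and 100 µM)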. hit rate 0.18% among 65,000. AID 577, 2007;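 active means z-score at -3 or under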;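 further: score is relative to mean and spread of the compound wells of a plate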
Target sequence (P06935 1371-1501 limits assumed): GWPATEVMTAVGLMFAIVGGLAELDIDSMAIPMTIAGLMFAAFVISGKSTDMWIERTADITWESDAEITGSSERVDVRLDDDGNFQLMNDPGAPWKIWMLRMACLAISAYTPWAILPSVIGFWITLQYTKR
Target sequence (P06935 1502-1679 limits assumed): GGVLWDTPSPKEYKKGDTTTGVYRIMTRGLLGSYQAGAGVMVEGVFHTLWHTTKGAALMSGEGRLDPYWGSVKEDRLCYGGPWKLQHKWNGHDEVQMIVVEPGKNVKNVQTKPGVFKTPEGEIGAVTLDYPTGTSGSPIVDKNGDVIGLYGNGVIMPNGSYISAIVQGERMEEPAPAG
Numbers without * were called inactive; i = inactive; . = not tested or not shown. An excerpt (hit frequency here may not be typical).

The line under a structure holds: MT1-MMP reporter	Hsc70	WNV NS2B-NS3 inh
> CN(C)S(=O)(=O)N(CC(=O)Nc1ccc(F)c(F)c1)c1ccccc1
 : i	0.3%	.
> Cc1ccc(OC(=S)Nc2ccccc2)c(C)c1
 : i	1.1%	.
> CC(=O)OCc1nc2ccccc2s1
 : i	-2.2%	.
> O=C(c1ccccc1)c1cccn1CC(=O)N1CCCCCC1
 : i	-5.2%	-1.3
> CC1(C)CC(=O)C2=C(C1)Oc1ncn(CCO)c(=N)c1C2c1ccccc1 (stereo unspecified)
 : i	-1.7%	-0.49
> COc1ccc(CN(C(=O)CSc2nnc(-c3ccccc3F)o2)c2ccc(F)cc2)cc1
 : i	4.2%	-0.02
> COCCCNC(=O)CCN1C(=O)COc2ccccc21
 : i	2.2%	-1.3
> CCSc1nc(N)c2c(C)c(C)sc2n1
 : i	0.7%	.
> CC(=O)NCC(=O)NC(C(=O)Nc1ccc2c(c1)OCCO2)c1ccc(C)cc1 (stereo unspecified)
 : i	4.8%	-1.2
> COc1ccc(-c2nc3c(n2O)CCC/C3=N\O)cc1
 : i	-0.9%	-1.4
> OC(CNCc1ccco1)Cn1c2ccccc2c2ccccc21 (stereo unspecified)
 : i	-8.3%	-0.03
> O=C1NC(c2cccnc2)C(C(=O)c2cccs2)C(O)(C(F)(F)F)N1 (stereo unspecified)
 : i	-1.1%	0.33
> Cc1nnc(SCC(=O)c2c(N)n(C)c(=O)n(C)c2=O)n1Cc1ccccc1
 : i	-5.4%	-0.66
> Cc1ccc2[nH]c(=O)c(CNC(C)C)cc2c1
 : i	2.8%	-0.06
> Cc1ccnc(NC(=O)C2CCCN(S(=O)(=O)c3cnc[nH]3)C2)c1 (stereo unspecified)
 : i	-0.3%	-0.29
> Cc1cc(Nc2ccc(F)cc2Cl)n2nc(C)nc2n1
 : i	4.9%	-0.23
> Cc1cc(C)n(-c2ccc(C(=O)OCC(=O)Nc3ccc(S(=O)(=O)N4CCOCC4)cc3)cc2)n1
 : i	8.5%	-0.45
> CCCCCCn1c(N2CCC(C)CC2)nc2c1c(=O)[nH]c(=O)n2C
 : i	1.3%	-0.09
> COC(=O)C1=C(C)NC2=C(C(=O)CC(C)(C)C2)C1c1ccccn1 (stereo unspecified)
 : i	3.9%	.
> COc1ccccc1N1CCN(C(=O)Cn2nnc(-c3cccs3)n2)CC1
 : i	2.8%	-0.27
> Cc1cc(C)n(-c2nc3ccccc3c(=O)n2OCC(=O)Nc2c(C)cccc2C)n1
 : i	-1.6%	-0.68
> COc1ccc(C(=O)Nc2cccc(N(C)S(C)(=O)=O)c2)cc1OC
 : i	2.8%	-0.58
> Cc1c(Cl)cccc1N1C(=O)CC(N(O)c2ccccc2)C1=O (stereo unspecified)
 : i	-4.4%	-0.6
> Cn1c(SCC(=O)N2CCOCC2)nc2cccnc21
 : i	-1.0%	-0.31
> CCOC(=O)Cc1nnc(Nc2cccc(O)c2)c2ccccc12
 : i	-5.8%	0.52
> CN(C1CCCCC1)S(=O)(=O)c1ccc(S(=O)(=O)N2CCN(C(=O)c3ccccc3F)CC2)cc1
 : i	-0.7%	.
> CCCC(c1nnnn1CCc1ccccc1)N1CCC(C(N)=O)CC1 (stereo unspecified)
 : i	2.0%	.
> Nc1ccc(-c2cnc(-c3ccc(N)cc3)nc2)cc1
 : i	-4.5%	0.97
> COC(=O)CN1C(=O)CC(C)(C)Sc2ccccc21
 : i	0.7%	-0.23
> Cc1nc2oc3c(NCc4ccccc4)ncnc3c2c2c1COC(C)(C)C2
 : i	3.8%	-0.66
> Cc1ccc2ncnc(NCCC(=O)O)c2c1
 : i	7.4%	.
> Cc1ccc(-c2nc(NC(=O)CSc3nnnn3-c3ccccc3)ns2)cc1
 : i	-2.3%	2
> CCOC(=O)c1c(N)c(C#N)cn1-c1ccccc1
 : i	5.3%	-0.49
> Cc1nc2ncnn2c(Nc2ccc3c(c2)OCO3)c1Cc1ccccc1
 : i	5.0%	-0.96
> Cc1nc2ccccc2c2oc(C(=O)NCCN3CCCCC3C)cc12 (stereo unspecified)
 : i	-5.3%	0.73
> CC(C)(C)n1nnnc1C(c1ccc(C(F)(F)F)cc1)N(Cc1ccc(F)cc1)Cc1ccco1 (stereo unspecified)
 : i	-3.3%	.
> Cc1ccc(S(=O)(=O)c2cc3c(=O)n4cc(C)ccc4nc3n(CC3CCCO3)c2=N)cc1 (stereo unspecified)
 : i	-3.1%	0.01
> CCOc1cc2[nH]c(=S)n(CCCN3CCCC3=O)c(=O)c2cc1OCC
 : i	5.8%	-1.2
> CC12CCC(c3c(C(=O)O)nn(-c4ccc(F)cc4)c31)C2(C)C (stereo unspecified)
 : i	-3.2%	.
> Cc1ccc(C(C(=O)NC(C)(C)C)N(Cc2ccco2)C(=O)CCC(=O)Nc2nccs2)cc1 (stereo unspecified)
 : i	5.0%	.
> Cc1nc2nc(COc3ccccc3)[nH]n2c(=O)c1Cc1ccccc1
 : i	4.9%	1.1
> Cc1cccc2nc(CSc3ccccc3N)cn12
 : i	0.3%	.
> COc1ccccc1-n1c(CNC(=O)c2ccco2)nnc1SCC(=O)Nc1cc(C)ccc1C
 : i	6.7%	-1.1
> O=C(c1ccccc1)N1CCC(c2nc3c(nnn3Cc3ccccc3Cl)c(=O)[nH]2)CC1
 : i	-6.6%	.
> CCOC(=O)c1cnc(-n2nc(C)cc2C)nc1Nc1cccc(C(=O)O)c1
 : i	-6.8%	0.84

Compound profiles, from the list above. Order of screens: MT1-MMP reporter | Hsc70 | WNV NS2B-NS3 inh
Shown for Cc1cccc2nc(CSc3ccccc3N)cn12 = i | 0.3% | .
Shown for CC(C)(C)n1nnnc1C(c1ccc(C(F)(F)F)cc1)N(Cc1ccc(F)cc1)Cc1ccco1 (stereo unspecified) = i | -3.3% | .
Shown for Cc1nc2ncnn2c(Nc2ccc3c(c2)OCO3)c1Cc1ccccc1 = i | 5.0% | -0.96
Shown for Cc1ccc2ncnc(NCCC(=O)O)c2c1 = i | 7.4% | .

Next section:
The line under a structure holds: MT1-MMP reporter	Hsc70	WNV NS2B-NS3 inh
> O=C(CCc1ccccc1)NCc1ccccn1
 : i	0.4%	-0.63
> O=C1c2ccccc2C(=O)N1CCCP(=O)(O)CCc1ccccc1
 : i	1.2%	-0.88
> CCOc1ccc(N2C(=O)CC(n3ccc(C)n3)C2=O)cc1 (stereo unspecified)
 : i	-1.5%	.
> Cc1cccc(OCc2nnc(N)s2)c1
 : i	-1.1%	0.79
> COc1cc(C(=O)NCc2cccc3ccccc23)ccc1OCc1ccccc1
 : i	-2.1%	.
> CCOC(=O)CN1C(=O)C(Sc2nnc(-c3ccccc3OC)s2)CCc2ccccc21 (stereo unspecified)
 : i	2.6%	.
> Cc1cc(C)nc(N2CCC(C(=O)N3CCN(c4cc(Cl)ccc4C)CC3)CC2)n1
 : i	1.1%	-0.67
> COc1ccc(-c2nc(C#N)c(N3CCCCCC3)o2)cc1
 : i	2.8%	-1.4
> CCOc1ccc(NC(=O)N(C2CCCCCC2)C2CCN(C(C)=O)CC2)cc1
 : i	-3.4%	0.58
> O=C(NC(C(=O)c1ccccc1)N1CCOCC1)c1ccccc1 (stereo unspecified)
 : i	-1.3%	1.3
> CC(Sc1ccccc1)C(=O)Nc1cccc(N(C)S(C)(=O)=O)c1 (stereo unspecified)
 : i	3.9%	-0.65
> Cc1nc(Sc2nnnn2C)c2c3c(sc2n1)CCC3
 : i	-2.3%	-0.41
> Cc1cc(=O)oc2cc(OC(C)C(=O)Nc3nccs3)ccc12 (stereo unspecified)
 : i	12%	-0.07
> Cc1oc(-c2ccccc2Cl)cc1-c1nn2c(-c3ccco3)nnc2s1
 : i	-1.3%	0.42
> CC(NC(=O)COc1ccccc1)C(=O)OCC(=O)c1cc2ccccc2o1 (stereo unspecified)
 : i	-9.4%	-1.2
> CCCN(Cc1cc2ccc(C)cc2[nH]c1=O)C(=O)c1cccnc1
 : i	-5.3%	-1.1
> COc1ccc(S(=O)(=O)N2CCN(C)CC2)cc1Br
 : i	3.9%	0.53
> CCOC(=O)N1c2ccccc2C=CC1OCC (stereo unspecified)
 : i	-0.9%	.
> CC(=O)OCc1c(F)c(F)c(-n2nc(C)cc2C)c(F)c1F
 : i	2.9%	-1.5
> Cc1ccc(Cn2nnc3c(=O)n(Cc4cccc(C)c4)cnc32)cc1
 : i	1.7%	0.25
> CCOc1ccccc1NS(=O)(=O)c1cccc2nsnc12
 : i	-2.2%	.
> O=C(Nc1ccccc1)N1CCC(C(=O)N2CCN(S(=O)(=O)c3cccc(F)c3)CC2)CC1
 : i	-3.0%	-0.34
> O=C1CCCC2=C1C(c1ccncc1)Nc1ccccc1N2 (stereo unspecified)
 : i	6.0%	.
> Cc1nc(NC2=NCN(C3CCCCC3C)CN2)nc2ccccc12 (stereo unspecified)
 : i	0.7%	0.7
> CCOC(=O)C1=C(O)/C(=C/c2ccc(C)o2)SC1=NC(=O)c1ccccc1C
 : i	-28%	.
> O=C(CSc1nnc(-c2ccccc2)n1Cc1ccco1)NCc1ccc2c(c1)OCO2
 : i	2.2%	.
> O=c1[nH]cnc2scc(-c3cccs3)c12
 : i	-3.5%	0.84
> O=C(Cc1ccccc1)NCc1nc2ccccc2[nH]1
 : i	3.1%	0.92
> Cc1c(NC(=O)CCc2ccc(S(=O)(=O)N3CCOCC3)cc2)c(=O)n(-c2ccccc2)n1C
 : i	-0.3%	0.15
> Cc1ccc(C)c2c1[nH]c1ccc([N+](=O)[O-])cc12
 : i	0.5%	.
> N#Cc1c(-c2ccc3c(c2)OCO3)csc1N
 : i	3.1%	0.36
> COc1ccc(N=CC2=C(Nc3ccc(OC)cc3)c3c(C)nn(-c4ccccn4)c3CC2)cc1
 : i	71%	.
> COc1cc(NC(=O)Cc2ccccc2)cc(OC)c1
 : i	2.5%	-1.2
> CC(C)n1nc(C(=O)OCC(=O)c2c[nH]c3ccccc23)c2ccccc2c1=O
 : i	-0.3%	.
> O=C(COC(=O)c1cnccn1)NCCc1ccccc1
 : i	-3.8%	.
> CC(C)Cn1c(CN2CCN(c3ccccc3F)CC2)nc2c1c(=O)[nH]c(=O)n2C
 : i	3.4%	-0.33
> CN(C)C(=O)Cn1nc(-c2ccccc2)c2ccccc2c1=O
 : i	-3.1%	1.2
> CCOC(=O)c1[nH]c2ccc(F)cc2c1NC(=O)CN1CCN(C/C=C/c2ccccc2)CC1
 : i	-2.7%	0.28
> CC1CCN(C(c2cccs2)c2nnnn2Cc2ccccc2)CC1 (stereo unspecified)
 : i	-2.4%	.
> N#CCCCn1c(-c2ccccc2)noc1=O
 : i	-3.2%	0.16
> Cc1ccc(Cl)cc1N1CCN(S(=O)(=O)c2cnc[nH]2)CC1
 : i	1.0%	0.02
> CCN(C(=O)c1cnc2scc(C)n2c1=O)c1ccccc1C
 : i	1.0%	-1.5
> CC(=O)Nc1ccc(S(=O)(=O)NCCNC(=O)c2ccccc2F)cc1
 : i	0.9%	0.99
> O=C(c1cccc(N2CCCC2=O)c1)N1CCN(c2ccccc2)CC1
 : i	8.0%	-0.05
> Cc1cc(C)n(S(=O)(=O)c2ccc(C(C)(C)C)cc2)n1
 : i	-2.3%	0.51
> COc1ccccc1-c1ccc(NC2CCCCC2)nn1
 : i	1.6%	-0.12
> CCOC(=O)c1oc2ccc(S(=O)(=O)Nc3ccc4c(c3)n(C)c(=O)n4C)cc2c1C
 : i	0.3%	0.0045
> Cc1ccc(-n2nc(C)c3c2OC(N)=C(C#N)C3c2ccccc2F)cc1 (stereo unspecified)
 : i	-5.4%	-0.16
> COC(=O)C1=CNC=C(C(=O)OC)C1c1cccc(OC)c1
 : i	2.8%	2.3
> CCOc1ccc(S(=O)(=O)N2CCc3ccccc3C2)cc1
 : i	-1.3%	0.3
> CC(Sc1nc2ccccc2s1)C(=O)N1CCOCC1 (stereo unspecified)
 : i	1.8%	-0.62
> CC(C)c1ccccc1NC(=O)c1cccnc1
 : i	-1.8%	0.09
> Cc1cccc(OCCn2c(=O)sc3ccccc32)c1
 : i	1.5%	.
> Cc1ccc(Sc2oc(/C=N/n3cnnc3)cc2Br)cc1
 : i	-1.7%	-0.84
> C/C(NCC(C)(C)CN(C)C)=C(/C#N)C(=O)NCc1ccccc1
 : i	1.8%	-0.1
> O=C(N1CCOCC1)N1CCC(n2nnc3cc(F)ccc32)CC1
 : i	18%	0.84
> CN1CCN(C(=O)N2CCNC2=O)CC1
 : i	-0.6%	2
> CC1CC(C)CN(C(=O)c2ccc3c(=O)n(Cc4ccc5c(c4)OCO5)c(=S)[nH]c3c2)C1 (stereo unspecified)
 : i	0.1%	.
> N#CC1=C(C=Nc2ccccc2O)CCC1
 : i	-5.1%	-1.4
> CCC(Sc1nc(=O)cc(N)n1-c1cccc(C)c1)C(=O)Nc1cc(C)on1 (stereo unspecified)
 : i	5.9%	-0.11
> COc1ccccc1-c1nnc(SCC(=O)O)n1C
 : i	3.1%	-0.62
> CN(CC(=O)NCCC1=CCCCC1)S(=O)(=O)c1ccc2c(c1)c(=O)n(C)c(=O)n2C
 : i	3.7%	-0.82
